Screens: PubChem, ICCB-Longwood Screening Facility, Harvard Medical School
Mtb MenB inh: inhibitors of Mycobacterium tuberculosis MenB enzyme; MenB enzyme assay, absorbance read-out; some hits fall short of the stated cut; inhibition, %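 (about 12 µg/mL by stock and volumes)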; 100,000 compounds, 0.43% hits; AID 540299;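 active = mean of two replicates above 30%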;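 note: 0% = no compound and 100% = wells with inactive enzyme; the first replicate is given; strong numbers were not always called active; inactives centre near -10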
Target sequence (P9WNP5 whole entry, looked up): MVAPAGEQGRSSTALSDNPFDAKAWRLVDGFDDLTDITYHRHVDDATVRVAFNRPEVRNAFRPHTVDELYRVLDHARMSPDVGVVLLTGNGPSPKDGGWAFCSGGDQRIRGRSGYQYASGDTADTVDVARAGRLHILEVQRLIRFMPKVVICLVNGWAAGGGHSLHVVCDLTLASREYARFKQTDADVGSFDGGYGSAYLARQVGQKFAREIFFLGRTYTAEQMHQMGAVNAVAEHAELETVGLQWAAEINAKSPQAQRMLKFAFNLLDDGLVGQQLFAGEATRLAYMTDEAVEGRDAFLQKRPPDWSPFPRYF
Mtb MbtI inh: MbtI salicylate synthase inhibition | P9WFX0 | purified MbtI enzyme, fluorescence intensity read-out | inhibition, %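 (about 17 µg/mL by stock and volumes)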 | 100,000 compounds, 0.89% hits | AID 493033;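 active = above 50% in both replicates, above 80% if mildly self-fluorescent; inactive = the rest, strongly fluorescent compounds included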;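 note: 0% = mean of negative and 100% = mean of positive controls; one replicate is shown; some compounds called inactive have numbers as strong as hits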
PV pol inh: poliovirus RNA polymerase inhibition; 150,000 compounds, 0.66% hits; % elongation, % (compound at 16.7 µg/mL); poliovirus polymerase elongation, fluorescence polarization; stronger effect = lower value; in the data active = % elongation below about 90%; note: some results filed as inactive read as strong as hits
Target sequence (P03300 1749-2209 limits assumed): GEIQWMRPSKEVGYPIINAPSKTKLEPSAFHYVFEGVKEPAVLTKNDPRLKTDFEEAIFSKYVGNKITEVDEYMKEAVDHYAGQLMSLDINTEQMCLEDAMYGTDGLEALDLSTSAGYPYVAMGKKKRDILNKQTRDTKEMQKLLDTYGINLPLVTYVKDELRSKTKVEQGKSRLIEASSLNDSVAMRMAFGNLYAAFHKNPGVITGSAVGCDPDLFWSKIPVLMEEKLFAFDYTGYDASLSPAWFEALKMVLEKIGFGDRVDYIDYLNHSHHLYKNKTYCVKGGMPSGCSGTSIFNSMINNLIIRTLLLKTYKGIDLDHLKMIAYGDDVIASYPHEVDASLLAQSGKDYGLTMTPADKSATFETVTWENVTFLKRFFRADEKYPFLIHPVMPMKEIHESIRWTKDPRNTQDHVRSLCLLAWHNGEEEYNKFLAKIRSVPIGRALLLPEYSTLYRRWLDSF
PV pol inh intensity: recorded beside PV pol inh, whose call it bears; % elongation; measured here: total intensity read-out; formula for this scale not given here;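 total fluorescence in place of polarization; lower means less elongation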
* hit, by the source's call; nt = no result given.

(1) CCn1c(C)nc2cc(-c3nc4c5c6c(sc5ncn4n3)CCCC6)ccc21
(2) CCSC1=N/C(=C\c2cc(Br)c(OC(C)=O)c(OC)c2)C(=O)S1
(3) O=C(COC(=O)Cc1cccs1)Nc1ccccc1
(4) O=C1c2ccccc2NC(c2cccs2)N1c1ccccc1 (configuration not stated)
(5) CCc1ccc2[nH]c(=O)c(CN(Cc3ccco3)Cc3nnnn3Cc3ccccc3)cc2c1
(6) COCCn1c(SC(C)C#N)nc2cc(Cl)ccc2c1=O (configuration not stated)
(7) Clc1cccc(-n2ncc3c(NC4CCCC4)ncnc32)c1
(8) COc1cc(/C=C/C(=O)Nc2ccc(-c3nnc4n3CCCCC4)cc2)ccc1OCC#N
screen / no.,1,2,3,4,5,6,7,8
Mtb MenB inh,-7.2,-10.1,-12.4,1.9,3.3,-12.5,-10.9,8.9
Mtb MbtI inh,2.4,-2.4,-12.1,nt,3.2,11.9,-5.4,30.8
PV pol inh,115.0,100.0,105.0,102.0,99.0,101.0,100.0,97.0
PV pol inh intensity,124.0,99.0,114.0,104.0,98.0,103.0,102.0,106.0

(9) N#Cc1c(/N=C/N2CCCCC2)sc2c1CCCC2
(10) C/C(CN1C(=O)c2ccccc2C1=O)=N/NC(=O)c1ccccc1O
(11) CCCC(=O)N(Cc1nc2ccccc2c(=O)[nH]1)C1CCCC1
(12) COC(=O)c1ccc(CSc2n[nH]c(=O)n2C2CC2)cc1
(13) NC(N)=Nc1ccccc1F
(14) CNC(=O)N(C1=NCCS1)c1ccccc1
(15) CCC(=O)Nc1ncc2c(n1)CC(C)(C)CC2=O
(16) O=c1cc(-c2cccs2)oc2ccc(Br)cc12
screen / no.,9,10,11,12,13,14,15,16
Mtb MenB inh,-51.5,-118.6,-58.2,-23.1,-1.2,4.7,9.9,nt
Mtb MbtI inh,3.8,-177.7,0.2,-1.1,-1.0,-1.3,nt,-8.7
PV pol inh,103.0,99.0,108.0,107.0,99.0,103.0,100.0,101.0
PV pol inh intensity,100.0,104.0,99.0,113.0,103.0,103.0,101.0,96.0

Some of the entries above in a different format:
13. NC(N)=Nc1ccccc1F
  Mtb MenB inh = -1.2
  Mtb MbtI inh = -1.0
  PV pol inh = 99.0
  PV pol inh intensity = 103.0

14. CNC(=O)N(C1=NCCS1)c1ccccc1
  Mtb MenB inh = 4.7
  Mtb MbtI inh = -1.3
  PV pol inh = 103.0
  PV pol inh intensity = 103.0

15. CCC(=O)Nc1ncc2c(n1)CC(C)(C)CC2=O
  Mtb MenB inh = 9.9
  Mtb MbtI inh = nt
  PV pol inh = 100.0
  PV pol inh intensity = 101.0

16. O=c1cc(-c2cccs2)oc2ccc(Br)cc12
  Mtb MenB inh = nt
  Mtb MbtI inh = -8.7
  PV pol inh = 101.0
  PV pol inh intensity = 96.0

(continued)
(17) CN1CCN(/C=C2\C(=O)N(c3ccc(Cl)cc3)C(=O)c3ccccc32)CC1
(18) COc1cc(-c2nnc(-c3ccc(N4CCOCC4)cc3)o2)cc(OC)c1OC
(19) OCCN1CCN(CC#CCn2c3ccccc3c3ccccc32)CC1
(20) COc1cc(Br)c(CCNC(=O)c2ccco2)cc1OC
(21) O=C(CCN1CCOCC1)Nc1c(-c2ccccc2)c2cc(Br)ccc2[nH]c1=O
(22) CN(C)CCN1C(=O)C(=O)/C(=C(/O)c2ccccc2)C1c1ccco1 (configuration not stated)
(23) CCCCCn1c(=O)c2ccccc2n2c(CN3c4cccc5cccc(c45)S3(=O)=O)nnc12
(24) CCOC(=O)c1c(C)n(C)c2ccc(O)c(S(=O)(=O)c3ccc(C)cc3)c12
screen / no.,17,18,19,20,21,22,23,24
Mtb MenB inh,8.3,-6.0,-11.6,3.1,-10.5,-4.8,-21.2,-4.9
Mtb MbtI inh,26.3,89.8,-1.7,-8.1,1.1,nt,-6.1,nt
PV pol inh,98.0,101.0,103.0,102.0,101.0,104.0,103.0,107.0
PV pol inh intensity,94.0,108.0,106.0,101.0,102.0,102.0,110.0,111.0

(25) O=c1c(C=Nc2ccccc2)c(Nc2ccccc2)[nH]n1-c1ccccc1
(26) CC(C)(C)c1ccc(S(=O)(=O)N2CCC(NC(=O)c3ccco3)CC2)cc1
(27) S=C1NCCN1CCOc1ccccc1
(28) Cc1cc(=O)oc2cc(OCC(=O)c3ccc4c(c3)OCO4)ccc12
(29) O=C(CSc1nc2ccccc2nc1-c1ccccc1)NCCN1CCOCC1
(30) O=C(COc1ccc(Cl)cc1)Oc1cc(=O)[nH]c2ccccc12
(31) CCOC(=O)/C(C#N)=C/c1ccccc1
(32) COc1ccc(NC(=O)c2cc3c(s2)-c2ccccc2SC3)cc1
screen / no.,25,26,27,28,29,30,31,32
Mtb MenB inh,-54.6,-11.5,-4.4,-41.5,-6.6,-121.6,-16.3,-71.2
Mtb MbtI inh,-4.8,-17.4,26.5,-11.2,10.1,0.8,-0.9,-9.6
PV pol inh,103.0,100.0,100.0,99.0,105.0,99.0,99.0,104.0
PV pol inh intensity,96.0,102.0,102.0,89.0,102.0,101.0,98.0,107.0

(33) COc1ccccc1-n1c(=O)c2c3c(sc2n2c(SCC(=O)c4ccccc4)nnc12)CCC3
(34) O=C1c2ccccc2C(=O)C1(O)N1CCOCC1
(35) COc1cc(/C=C2\C(=O)Nc3ccc(Cl)cc32)cc(OC)c1OC
(36) Nc1ccc(Br)cc1C(O)c1ccccc1 (configuration not stated)
(37) CCC(=O)Nc1nc(C)c(-c2csc(Nc3ccc(S(N)(=O)=O)cc3)n2)s1
(38) O=C(c1cc(-c2cccs2)nc2ccccc12)N1CCOCC1
(39) CCN1CCN(CCCNC(=O)C2CCCN(c3nc4c(C)cc(C)cc4s3)C2)CC1 (configuration not stated)
(40) CCOc1ccc2oc(C(=O)Nc3ccc(N4CCOCC4)cc3)c(C)c2c1
screen / no.,33,34,35,36,37,38,39,40
Mtb MenB inh,-19.1,18.8,nt,-29.3,9.0,nt,-6.3,-22.6
Mtb MbtI inh,-0.9,1.6,-4.6,6.4,35.2,89.7,-1.2,-2.7
PV pol inh,102.0,34.0*,93.0,102.0,102.0,104.0,102.0,102.0
PV pol inh intensity,103.0,37.0*,117.0,108.0,103.0,107.0,102.0,96.0

(41) CC(=O)Nc1ccc(C(=O)Nc2ccccn2)cc1
(42) CC(CC(=O)O)CC(=O)Nc1ccccn1 (configuration not stated)
(43) O=S1(=O)N=C(N2CCc3ccccc32)c2ccccc21
(44) CC(C)CNC(=O)c1cc(-c2ccccc2O)on1
(45) CCC(=O)Nc1cccc(NC(=O)c2ccccc2Cl)c1
(46) Cc1nn(CC(=O)Nc2ccc(N3CCCC3)cc2)c(=O)c2ccccc12
(47) CCOC(=O)c1nonc1N
(48) Cc1cc(C(=O)Nc2ccc(C(=O)N3CCOCC3)cc2)cs1
screen / no.,41,42,43,44,45,46,47,48
Mtb MenB inh,-56.0,14.4,-6.9,-19.5,-1.0,-12.1,-6.6,-15.7
Mtb MbtI inh,5.8,-5.4,-5.5,-35.4,10.8,-20.1,nt,4.5
PV pol inh,109.0,99.0,103.0,101.0,102.0,102.0,109.0,99.0
PV pol inh intensity,101.0,100.0,101.0,106.0,105.0,102.0,109.0,100.0

(49) CCN(CC)C(=O)NCCc1nnc(SC)n1C
(50) CC(C)c1ccc(N(CC(=O)N2CCN(Cc3ccccc3)CC2)S(C)(=O)=O)cc1
(51) CNC(=O)CC1C(=O)N(c2ccc(Cl)cc2)C(=S)N1NC(=O)c1cccc(F)c1 (configuration not stated)
(52) O=C(c1ccc(S(=O)(=O)NCc2cccs2)s1)N1CCCC1
(53) OC(COc1ccc(-c2ccccc2)cc1)Cn1ccnc1 (configuration not stated)
(54) O=C(Nc1ccccc1C(F)(F)F)N1CCC(Nc2nc3ccccc3o2)CC1
(55) Cc1c(NC(=O)C(C)OC(=O)c2c(F)cccc2Cl)c(=O)n(-c2ccccc2)n1C (configuration not stated)
(56) O=C(CSc1ccccc1)Nc1ccccc1N1CCOCC1
screen / no.,49,50,51,52,53,54,55,56
Mtb MenB inh,-26.9,-15.2,-13.3,-13.3,-57.4,-4.9,-17.7,-6.9
Mtb MbtI inh,-9.8,7.5,-27.9,8.3,-8.0,-8.9,0.7,-3.0
PV pol inh,106.0,100.0,102.0,99.0,105.0,104.0,106.0,102.0
PV pol inh intensity,102.0,96.0,96.0,101.0,100.0,102.0,102.0,100.0

(57) CCCN(Cc1nnc(-c2ccco2)o1)C(=O)C1CC(=O)N(Cc2ccccc2)C1 (configuration not stated)
(58) COc1cc(CCC(C)NC(=O)c2ccco2)ccc1OC(=O)c1ccco1 (configuration not stated)
(59) CN1C(=O)/C(=C/c2ccc(C(=O)NC3CCCC3)cc2)Oc2ccccc21
(60) c1coc(CSc2nc3ccccc3n3cnnc23)c1
(61) O=S(=O)(c1ccc2c(c1)C(=NO)c1cc(S(=O)(=O)N(CCO)CCO)ccc1-2)N(CCO)CCO
(62) O=C(COC(=O)C1CCN(S(=O)(=O)c2ccc3c(c2)OCCO3)CC1)c1ccc(Cl)s1
(63) Cc1ccc(/C=N/NC(=O)Cn2ccc(C(F)(F)F)n2)o1
(64) COc1cc(NC(=O)CSc2ccccc2)cc(OC)c1
screen / no.,57,58,59,60,61,62,63,64
Mtb MenB inh,-19.8,-4.9,6.8,-4.1,0.2,-0.9,-22.4,1.9
Mtb MbtI inh,3.5,-12.3,134.7,-5.8,51.6,-7.5,12.4,4.1
PV pol inh,101.0,103.0,102.0,101.0,103.0,107.0,103.0,108.0
PV pol inh intensity,103.0,101.0,100.0,111.0,99.0,104.0,105.0,109.0

(65) CC1CN(CC(=O)N2CCNC2=O)CC(C)O1 (configuration not stated)
(66) O=S(=O)(c1ccc2c(c1)CCCN2)N1CCCCC1
(67) C=C(C)CC(Nc1ccccc1F)c1ccco1 (configuration not stated)
(68) CCCOC(=O)CC1C(=O)NCCN1Cc1ccccc1 (configuration not stated)
(69) CC(CN=CC1=C(O)CC(C)(C)CC1=O)c1ccccc1 (configuration not stated)
(70) CC1CN(/C=C(\C#N)S(=O)(=O)c2ccc(Br)cc2)CC(C)O1 (configuration not stated)
(71) N/C(C[n+]1ccccc1)=N\O
(72) CCc1ccc(NC(=O)CN(c2ccc3c(c2)OCO3)S(=O)(=O)c2c(C)noc2C)cc1
screen / no.,65,66,67,68,69,70,71,72
Mtb MenB inh,6.8,-13.3,-21.5,5.4,-17.1,5.5,16.0,-33.0
Mtb MbtI inh,-3.5,7.3,-154.9,1.5,5.7,-9.2,1.9,-8.2
PV pol inh,101.0,104.0,101.0,103.0,100.0,100.0,102.0,103.0
PV pol inh intensity,105.0,105.0,104.0,98.0,101.0,95.0,105.0,106.0

From compound 71 to 72, as listed above:
(71) N/C(C[n+]1ccccc1)=N\O
(72) CCc1ccc(NC(=O)CN(c2ccc3c(c2)OCO3)S(=O)(=O)c2c(C)noc2C)cc1
screen / no.,71,72
Mtb MenB inh,16.0,-33.0
Mtb MbtI inh,1.9,-8.2
PV pol inh,102.0,103.0
PV pol inh intensity,105.0,106.0

(listing goes on)
(73) COC(=O)c1ccc(CSc2nncn2N)o1
(74) CC1(C)CC2=NN(c3ccccc3)P(=O)(N3CCCc4ccccc43)C2=C(N2CCCC2)C1 (configuration not stated)
(75) c1ccc(-n2ncc3c(NC4CCCCC4)ncnc32)cc1
(76) O=C(/C=C/c1ccco1)Nc1ccc2nn(-c3ccccc3)nc2c1
(77) CCOc1ccc(S(=O)(=O)N2CCN(C(=O)C3COc4ccccc4O3)CC2)cc1 (configuration not stated)
(78) CCn1c(C(=O)OC)cc2c1ccn2-c1ccc(F)cc1
(79) Cc1cc(C(=O)N/N=C/c2ccc(O)cc2)c2ccccc2n1
(80) Cc1cc(C(=O)NC2CCCCCC2)no1
screen / no.,73,74,75,76,77,78,79,80
Mtb MenB inh,-4.0,-10.8,-20.9,-23.8,-28.0,31.6*,-17.6,-3.0
Mtb MbtI inh,-2.2,7.6,-1.4,15.8,-4.3,90.2,26.5,-10.1
PV pol inh,100.0,105.0,101.0,100.0,105.0,103.0,102.0,106.0
PV pol inh intensity,100.0,109.0,101.0,103.0,110.0,104.0,103.0,108.0

(81) O=C(NC1CCOC1=O)c1ccc(COc2ccc(Cl)cc2Cl)o1 (configuration not stated)
(82) O=C(O)CCC(=O)Nc1nc2ccccc2s1
(83) COc1ccc(-c2nc(N)ncc2-c2cscn2)c(O)c1
(84) Cc1csc(=O)n1CCOC(=O)c1ccc2[nH]c3c(c2c1)CCCC3
(85) CCOC(=O)c1sc2ncnc(Nc3ccc(OCC)cc3)c2c1C
(86) O=C(NCc1ccccn1)c1ccc(/C=N/O)nc1
(87) CCC1(c2cccc(OC(=O)C3CCCCC3)c2)CCCCN(C)C1=O (configuration not stated)
screen / no.,81,82,83,84,85,86,87
Mtb MenB inh,-8.4,-11.5,-10.0,0.9,4.8,-29.6,-9.0
Mtb MbtI inh,nt,12.4,nt,42.4,27.6,0.9,-0.7
PV pol inh,108.0,102.0,107.0,101.0,100.0,101.0,102.0
PV pol inh intensity,111.0,101.0,109.0,110.0,102.0,102.0,95.0
